Source: PubChem BioAssay (National Center for Advancing Translational Sciences (NCATS))
RE007 growth inh = qHTS Assay for Inhibitors of the HIV-1 protein Vpr | Potency, µM (titrated, usually from 92.2 µM), inactives show at the highest dose activity change, negative = less growth | 360,000 tested, 0.21% active | AID 651644, 2012 | S. pombe RE007 Vpr strain, BacTiter-Glo ATP luminescence, 24 h; control for the full effect not named in the record; active = well fitted falling curve with a large enough effect; inconclusive = small, poorly fitted or top-dose-only effect; inactive = no such curve, though single readings can be large or run the other way;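 also: nearly all actives have a fitted effect of over 50% in size; the assay follows cell death caused by Vpr and the record does not say whether a fall means rescue or toxicity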
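Fission yeast strain RE007, carrying one chromosomally integrated HIV-1 vpr copy, was seeded at OD 0.01 in PMG+AL medium with 23 nL pinned compound. After 24 h at 30 °C and 99% humidity, viability was read by BacTiter-Glo luminescence.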
2A StopGo = High Throughput Screening for Foot and Mouth Disease Virus Antivirals | human cells with a luciferase reporter of 2A StopGo recoding; control for the full effect not named in the record | 410,000 tested, 1.2% active | Potency, µM (series often up to 57.9 µM), for inactives: at the top dose signal change, negative = less light | AID 1159524, 2015; active = well fitted falling curve with a large enough effect; inconclusive = small, poorly fitted or top-dose-only effect; inactive = no such curve, though single readings can be large or run the other way; tested in HEK293T cells; also: nearly all actives have a fitted effect of over 45% in size; luciferase light after 4 h
Starred values were filed as active, the others as inactive; ? = inconclusive; [ ] = dose if it differs, or a comment. % is scaled to controls: 0 for no effect and ±100 for the full control effect; potency is read from the fitted curve at half-maximal effect.

SMILES | RE007 growth inh | 2A StopGo
C[C@H](CO)N1C[C@H](C)[C@@H](CN(C)C(=O)c2cc(-c3ccccc3)on2)OCc2cn(nn2)CCCC1=O | -12% | -6%
COC(=O)c1c(NC(=O)c2ccc(S(=O)(=O)N3CC(C)OC(C)C3)cc2)sc2c1CCN(C)C2 (stereo not drawn) | -3% | -19%
COc1ccc(NC(=O)c2cc(C3CCCCN3C(=O)c3ccc4c(c3)CCO4)on2)c(C)c1 (stereo not drawn) | 6%[18.4 µM] | 22%
C[C@@H]1CN([C@@H](C)CO)C(=O)CCCn2nncc2CO[C@@H]1CN(C)S(=O)(=O)c1ccc(-n2cccn2)cc1 | 11% | -23%
COc1ccc(CC(=O)Nc2cc(S(=O)(=O)N3CCOCC3)ccc2N2CCCC2)c(OC)c1 | 14% | 9%
C[C@@H]1CN([C@@H](C)CO)C(=O)c2cc(Br)cnc2O[C@H]1CN(C)Cc1cccc(C(=O)O)c1 | 5% | 8%
FC(F)(F)c1cc(Cc2nc3ccccc3n2C(CCc2ccccc2)c2nc3ccccc3[nH]2)cc(C(F)(F)F)c1 (stereo not drawn) | 7% | -11%
O=C(NCC[C@H]1CC[C@H](NS(=O)(=O)c2ccccc2F)[C@@H](CO)O1)c1ccc(F)cc1 | -4% | 2%
C=Cc1cnc([N+](=O)[O-])n1C | -22% | 0%
COc1ccc(CN2C(=O)C(CC(=O)NCC3CCCCC3)CC(C(=O)N(C)C)=C2C)cc1 (stereo not drawn) | -18% | 0%
O=C(NCc1ccncc1)[C@@H]1CCCN1C(=O)[C@H]1CCCN1C(=O)c1c(F)cccc1F | 8% | -17%
C[C@@H]1CN([C@H](C)CO)C(=O)c2cc(/C=C/c3ccccc3)cnc2O[C@H]1CN(C)C(=O)NC1CCCCC1 | 6% | -26%
C[C@H]1CN([C@@H](C)CO)C(=O)CCCn2nncc2CO[C@H]1CN(C)C(=O)Nc1cccc2ccccc12 | 5% | -8%
C[C@H](CO)N1C[C@H](C)[C@@H](CN(C)S(=O)(=O)c2ccccc2)OCCCC[C@H](C)Oc2ccc(NC(=O)CCC(F)(F)F)cc2C1=O | 21% | -11%
CCNC(=O)C1(C)CCCN(Cc2noc(-c3c(C)noc3C)n2)C1 (stereo not drawn) | 1% | -21%

Next part; the last 6 above are carried over.
SMILES | RE007 growth inh | 2A StopGo
COc1ccc(CN2C(=O)C(CC(=O)NCC3CCCCC3)CC(C(=O)N(C)C)=C2C)cc1 (stereo not drawn) | -18% | 0%
O=C(NCc1ccncc1)[C@@H]1CCCN1C(=O)[C@H]1CCCN1C(=O)c1c(F)cccc1F | 8% | -17%
C[C@@H]1CN([C@H](C)CO)C(=O)c2cc(/C=C/c3ccccc3)cnc2O[C@H]1CN(C)C(=O)NC1CCCCC1 | 6% | -26%
C[C@H]1CN([C@@H](C)CO)C(=O)CCCn2nncc2CO[C@H]1CN(C)C(=O)Nc1cccc2ccccc12 | 5% | -8%
C[C@H](CO)N1C[C@H](C)[C@@H](CN(C)S(=O)(=O)c2ccccc2)OCCCC[C@H](C)Oc2ccc(NC(=O)CCC(F)(F)F)cc2C1=O | 21% | -11%
CCNC(=O)C1(C)CCCN(Cc2noc(-c3c(C)noc3C)n2)C1 (stereo not drawn) | 1% | -21%
CCC1Oc2ccccc2N(CC(=O)N2CC(C)CC(C)C2)C1=O (stereo not drawn) | 3% | -2%
COCCCNC(=O)c1cccc2c(-c3cccc(C(N)=O)c3)coc12 | 0% | -10%
Nc1[nH]c(C(=O)c2ccccc2)c(-c2ccc(Br)cc2)c1C(=O)c1cccs1 | 4% | -7%
O=C(NC1CCCCC1)c1nc(-c2c(F)cccc2F)oc1-c1ccccc1 | -4% | -11%
CN(C)c1ccc(C(=O)N2CCC2(C)C(=O)O)cc1 (stereo not drawn) | 10%[18.4 µM] | -18%
OCCOCCn1c(C(CO)Nc2nc(-c3ccccc3Br)cs2)nc2ccccc21 (stereo not drawn) | -3% | 3%
CC(C)=CCC12Oc3cc(O)ccc3C1(O)Oc1cc3c(c(O)c1C2=O)C=CC(C)(C)O3 (stereo not drawn) | ? | -21%
N#CC1c2ccccc2-n2nncc2CN1S(=O)(=O)c1ccc(Cl)cc1 (stereo not drawn) | 0% | 3%
COc1cc(CNc2ccc(S(N)(=O)=O)cc2)ccc1OCc1ccccc1F | -11% | 1%
C[C@@H]1[C@@H](Sc2ccccc2)CC(=O)O[C@@H]1c1ccc(-c2ccccc2)cc1 | -1% | 0%
Cc1nn(C)cc1CN(C)C(=O)C1CCC(=O)N(CCc2cccc(F)c2)C1 (stereo not drawn) | 3% | -28%
Cc1ccc(NC(=O)c2ccc(-c3cc(Cl)ccc3Cl)o2)c(C)c1 | 12% | 11%
O=C(NCCO)c1cccc(-c2cccc3nncn23)c1 | 3% | 4%
COCCNc1ncnc2c1ncn2[C@H]1CN(Cc2ccc3c(c2)OCO3)C[C@@H](CO)O1 | 13% | -4%
CC1=C(C#N)C(C)(C)C(C#N)=C(C)N1 | -17% | -10%
Clc1nnc(NC2CCCCC2)c(Cl)c1Cl | -25% | -24%
COC(=O)[C@@H]1CCCN1C(=O)[C@@H](NC(=O)OC(C)(C)C)C(C)C | -7% | -26%
COCCCN1C(=O)C(CC(=O)NCc2cccc3ccccc23)CC(C(=O)N(C(C)C)C(C)C)=C1C (stereo not drawn) | -2% | 3%
O=C(Nc1ccccc1)C1=C[C@@H](c2ccc3c(c2)OCO3)C[C@@H](OCCCCO)O1 | 1% | 59%[activator]
COc1ccc(C(C)(O)c2nc(-c3cccc(C(F)(F)F)c3)cs2)cc1 (stereo not drawn) | 35µM* | -22%
CC(=O)C1=CCC(c2ccc(Br)cc2)N(S(=O)(=O)c2ccc(C)cc2)C1 (stereo not drawn) | 3% | ?
COc1ccc(C#Cc2c(-c3ccsc3)oc3ccc(N4CCOCC4)cc23)cc1 | 9% | -2%
COC(=O)c1ccccc1COc1cccn2c(N(C)C(=O)CCC3CCCC3)c(C)nc12 | -8%[18.4 µM] | ?
O=C(C(=O)N1CCCN(Cc2ccc(F)cc2)CC1)c1ccccc1 | -13% | -1%
COc1ccc(CN2C(=O)C(CC(=O)NCCc3ccccn3)CC(C(=O)N3CCOCC3)=C2C)cc1 (stereo not drawn) | 8% | -12%
C/C=C1\COC(C(=O)NCCN2CCCC2)(C(F)(F)F)C=C1C=C1CCCCC1 (stereo not drawn) | -2% | 0%
Cc1ccc(S(=O)(=O)N2CC3(O)CN(C(=O)OC(C)C)N(C(=O)OC(C)C)CC3(OC(=O)Nc3cccs3)C2)cc1 (stereo not drawn) | 3% | ?
CCCNC(=O)C1(C)CCN(CCC(=O)c2ccc(Br)cc2)C1 (stereo not drawn) | ? | -10%
COC(=O)CCCn1cc(CN2CC(N3CCN(C4CCN(C)CC4)CC3)CS2(=O)=O)nn1 (stereo not drawn) | 17% | -6%
CCOC(=O)C1=C[C@@H](c2ccccc2)N(S(=O)(=O)c2ccc(C)cc2)[C@H]1c1ccccc1Cl | 1% | -14%
CCOC(=O)C1=NOC2(C1)C(=O)Nc1ccc(OC(F)(F)F)cc12 (stereo not drawn) | 4% | -18%
COc1cccc(CNc2nc(NCC3CC3)nc3ccsc23)c1OC | -2% | ?
COc1ccc(NC(=O)COc2ccccc2C(N)=O)cc1S(=O)(=O)N1CCCCC1 | 11% | -13%
COc1cc(N(C(C)=O)c2ccc(O)cc2)c2ncccc2c1 | 0% | -16%
CCNC(=O)C1(C)CCCN(C(=O)c2cc(OC)ccc2Br)C1 (stereo not drawn) | 8% | 3%
COc1ccc(OC)c(S(=O)(=O)NC(=O)C2(C)CCN2C(=O)CC2CCCC2)c1 (stereo not drawn) | 4% | -2%
Cc1nc2c(OCC(=O)C(C)(C)C)cccn2c1N(C)Cc1cccs1 | -28% | -14%
Cc1cc(C)c2nc(-c3ccccc3)ccc2c1 | -3% | 45%[activator]
CCCCN1CC(COCc2ccccc2)Oc2cccc(NCc3ccc(OC)cc3)c2S1(=O)=O (stereo not drawn) | 6% | 9%
COc1cccc(/C=C/C(=O)OCC(=O)c2ccc(Br)cc2)c1 | 4% | -7%
NC(=O)c1cccc(-c2cnc3c(Nc4cccc(OC(F)(F)C(F)F)c4)nccn23)c1 | -4%[18.4 µM] | -1%
CC(C)c1cccc(-c2csc(C(C)(O)c3ccccc3)n2)c1 (stereo not drawn) | ? | -5%
CC1(C(=O)NS(=O)(=O)c2ccc(Cl)cc2)CCN1C(=O)Cc1ccccc1Cl (stereo not drawn) | -9%[18.4 µM] | -12%
CC1CCC(C(O)(C(=O)c2ccccc2)c2ccccc2)C(=O)C1 (stereo not drawn) | 18% | 0%
COCCNC(=O)C1(C)CCCN(C(=O)c2ccc3snnc3c2)C1 (stereo not drawn) | -5%[18.4 µM] | -4%
O=C(COC(=O)/C=C/c1cccc(F)c1)NC1CCCCC1 | -2% | -5%
CC(C)C[C@H]1COc2cccc(N3CCC[C@@H]3CO)c2S(=O)(=O)N1 | 5% | -22%
COC(=O)C1=C(c2cc3ccccc3s2)C[C@@H]2CC[C@H]1N2C(=O)NC(C)C | 6% | -10%
CN1C[C@@H]2[C@@H]3C(=O)N(Cc4ccccc4)C(=O)[C@@H]3[C@](C)(C1=O)N2C(=O)c1ccc(C(C)(C)C)cc1 | 1% | -12%
CCOc1ccc(CCN2C(=O)C(=O)N([C@@H](CC(C)C)CN3CCC[C@H]3CN3C(=O)C(=O)NC[C@@H]3Cc3ccccc3)C[C@@H]2Cc2ccc(O)cc2)cc1 | 4% | 0%
C[C@@H]1CN([C@@H](C)CO)S(=O)(=O)c2ccc(Br)cc2O[C@H]1CN(C)C(=O)Nc1ccc2c(c1)OCO2 | 5% | -5%
COc1cc(Oc2ccccc2)nc(N)n1 | 5% | -8%
CC(C)C[C@H]1CN(CCCC[C@H]2CNC(=O)C(=O)N2CCc2ccccc2)C(=O)C(=O)N1CCc1ccc(O)cc1 | -6% | -23%
Cc1ccc(S(=O)(=O)N2C[C@H]3[C@H]4C(=O)N(c5ccccc5)C(=O)[C@H]4CC(=O)[C@H]3[C@@H]2c2ccccc2)cc1 | -11% | -8%
Cc1c(C(=O)N2CCCC2(C)C(=O)NCC(C)C)oc2ccccc12 (stereo not drawn) | 12% | -13%
O=C(C[C@@H]1C[C@H]2c3cc(NC(=O)c4cccnc4)ccc3O[C@H]2[C@H](CO)O1)NCc1ccc(Oc2ccccc2)cc1 | 3% | ?
Cc1cn(CC(=O)NCCc2ccccn2)c(=O)[nH]c1=O | 11% | -16%
Cc1ccccc1SCC(=O)NCC1(N2CCCCC2)CCCCC1 | -12% | -18%
Cc1cccc(-c2ccc3[nH]c4c(c3c2)CCN2C[C@@H]([C@H](C)O)[C@@H](N(C)C(=O)Nc3ccc(F)cc3)C[C@@H]42)c1 | 13% | -16%
CC(=O)c1ccc(OCc2cc(C(=O)N(C)CC3COc4ccccc4O3)no2)cc1 (stereo not drawn) | -14% | 1%

Single records, from the list above:
Entry for `C[C@@H]1CN([C@@H](C)CO)S(=O)(=O)c2ccc(Br)cc2O[C@H]1CN(C)C(=O)Nc1ccc2c(c1)OCO2` → RE007 growth inh: 5%; 2A StopGo: -5%
Entry for `COC(=O)C1=C(c2cc3ccccc3s2)C[C@@H]2CC[C@H]1N2C(=O)NC(C)C` → RE007 growth inh: 6%; 2A StopGo: -10%

Continuation.
SMILES | RE007 growth inh | 2A StopGo
COc1cccc(S(=O)(=O)Nc2ccc3c(c2)[C@@H]2C[C@H](CC(=O)NCCc4ccccc4)O[C@H](CO)[C@@H]2O3)c1 | 5% | -4%
CC(C)N(C(=O)c1ccc(Cc2cn(C)c3ccccc23)nc1)C(C)C | 6% | -4%
COc1cc2oc3cc(C#Cc4ccc(N)cc4)ccc3c(=O)c2cc1OC | -5% | ?
COc1ccc(OC)c(S(=O)(=O)NC(=O)C2(C)CCN2C(=O)C2(c3ccc(Cl)cc3)CC2)c1 (stereo not drawn) | 6%[18.4 µM] | 20%
NC(=O)c1ncn([C@@H]2O[C@H](CNC(=O)[C@H](N)CSCc3ccccc3)[C@@H](O)[C@H]2O)n1 | 7% | -15%
CCCCNS(=O)(=O)c1cccc(NC(=O)[C@@H]2O[C@H](CO)[C@@H](O)[C@H]2O)c1 | -3%[18.4 µM] | 3%
CNc1cncc(-c2ccc(OC)cc2)n1 | 8% | 33%[activator]
CCc1nc2ccc(C(=O)NCCc3ccccn3)cn2c1N(CCC(C)C)CCN(C)C | -20% | -9%
Cc1noc(C)c1-c1ccc(C(=O)NCC2CC2)c2occc12 | 6% | 10%
Nc1ccc(S(=O)(=O)c2ccc(N3CCOCC3)c(N)c2)cc1 | 3% | 0%
Cc1ccc(Cl)cc1-c1cc(C(=O)NCc2cccc(Cl)c2)[nH]n1 | -3% | -10%
Cc1nc2ccc(C(=O)NCCCN3CCCC3=O)cn2c1N(C)C(=O)CCc1ccccc1 | 4%[18.4 µM] | -12%
COc1ccc(-c2c(Sc3ccccc3)c3cc(-c4ccc(OC)c(F)c4)ccc3n2C)cc1 | 1% | -11%
CC1(c2nnnn2-c2ccc3c(c2)OCCO3)CCC(=O)N1CCCn1ccnc1 (stereo not drawn) | -8% | -7%

These rows are one share of the data, so the mix of outcomes need not match the whole.
